Screening results (PubChem BioAssay)
NPYLR7 ag: mosquito NPYLR7 agonism. AID 1259423. activation, % at 10 µM. HEK293T NPYLR7/Galpha15, GCaMP6s calcium fluorescence. 0.15% of 270,000 active; in the data active = activation above about 40%;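 also: 0% = vehicle and 100% = reference agonist at the receptor; some compounds past the cut are filed as inactive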
NPYLR7 ag max-min: also measured in NPYLR7 ag; calls as there; activation, %; measured here: Max-Min RFU normalised activation; some inactives read as strong as hits;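 span of the calcium signal over five minutes; 0% = vehicle and 100% = native peptide agonist; compound fluorescence can raise it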
The depositor's hits bear a star. These rows are one share of the data; rates above refer to the full screens.

The first 19 entries (preview)
SMILES | NPYLR7 ag | NPYLR7 ag max-min
CC(=O)N1CCc2cc(S(=O)(=O)Nc3ccc(F)c(Cl)c3)ccc21 | 1 | 2
CCCNC(=O)C(C)NC(=O)Cc1cccc(OC)c1 (stereo not given) | 2 | 0
CCc1cnc(NC(=O)C2CCNC(=O)C2)s1 (stereo not given) | 7 | 3
FC(F)(F)c1ccc(-c2nc(CSc3nc4ccccc4o3)cs2)cc1 | 6 | 1
N#Cc1cccc(S(=O)(=O)N2CCN(C(c3ccccc3)c3ccc(Br)cc3)CC2)c1 (stereo not given) | 35 | 33
COc1cc(/C=C/C(=O)Oc2coc(CSc3nccc(C)n3)cc2=O)cc(OC)c1OC | -13 | -8
Cc1nnnn1-c1ccc(CC(=O)NC(C)C2=CCCCC2)cc1 (stereo not given) | -4 | -5
O=C(Nn1cnc2c(cnn2-c2ccc(F)cc2)c1=O)c1ccc(C(F)(F)F)cc1 | 5 | 3
CC(C)(C)c1cc2nc(-c3ccccc3F)cc(C(=O)N3CCC(Cc4ccccc4)CC3)n2n1 | -10 | -2
CCCCc1ccc(-c2ccc(-n3cncc3C(=O)NCc3cccc(Cl)c3Cl)cc2)cc1 | 13 | 11
O=C(C1=C(O)C(=O)N(Cc2cccnc2)C1c1ccc(F)cc1)c1ccco1 (stereo not given) | 4 | 8
COC(=O)C1CCN(S(=O)(=O)c2c(F)cc(F)cc2Br)CC1 | 88* | 75*
OCC(O)COC(c1ccccc1)(c1ccccc1)c1ccccc1 (stereo not given) | 6 | 4
COc1ccc(C(=O)N2CCN(c3cc(Cl)nc(SCC(=O)N4CCC(Cc5ccccc5)CC4)n3)CC2C)cc1 (stereo not given) | -2 | 5
CCCc1cc(CN(C)C(=O)CCc2nnc(Cc3cccc(C)c3)o2)[nH]n1 | 18 | 5
CC1CCCCN1Cc1nc2c(c(=O)n(C)c(=O)n2C)n1CCCc1ccccc1 (stereo not given) | 5 | 1
Cc1nc(N2CCCCC2)nc2c1C(=O)CC(C)C2 (stereo not given) | 4 | -1
CCC1(CO)CCCN(c2nccc(CCC(F)(F)F)n2)C1 (stereo not given) | -6 | -10
CCN(C)c1ccnc(N2CCN(Cc3ccncc3F)CC2)n1 | 2 | 1

The listing, from the start:
SMILES | NPYLR7 ag | NPYLR7 ag max-min
CC(=O)N1CCc2cc(S(=O)(=O)Nc3ccc(F)c(Cl)c3)ccc21 | 1 | 2
CCCNC(=O)C(C)NC(=O)Cc1cccc(OC)c1 (stereo not given) | 2 | 0
CCc1cnc(NC(=O)C2CCNC(=O)C2)s1 (stereo not given) | 7 | 3
FC(F)(F)c1ccc(-c2nc(CSc3nc4ccccc4o3)cs2)cc1 | 6 | 1
N#Cc1cccc(S(=O)(=O)N2CCN(C(c3ccccc3)c3ccc(Br)cc3)CC2)c1 (stereo not given) | 35 | 33
COc1cc(/C=C/C(=O)Oc2coc(CSc3nccc(C)n3)cc2=O)cc(OC)c1OC | -13 | -8
Cc1nnnn1-c1ccc(CC(=O)NC(C)C2=CCCCC2)cc1 (stereo not given) | -4 | -5
O=C(Nn1cnc2c(cnn2-c2ccc(F)cc2)c1=O)c1ccc(C(F)(F)F)cc1 | 5 | 3
CC(C)(C)c1cc2nc(-c3ccccc3F)cc(C(=O)N3CCC(Cc4ccccc4)CC3)n2n1 | -10 | -2
CCCCc1ccc(-c2ccc(-n3cncc3C(=O)NCc3cccc(Cl)c3Cl)cc2)cc1 | 13 | 11
O=C(C1=C(O)C(=O)N(Cc2cccnc2)C1c1ccc(F)cc1)c1ccco1 (stereo not given) | 4 | 8
COC(=O)C1CCN(S(=O)(=O)c2c(F)cc(F)cc2Br)CC1 | 88* | 75*
OCC(O)COC(c1ccccc1)(c1ccccc1)c1ccccc1 (stereo not given) | 6 | 4
COc1ccc(C(=O)N2CCN(c3cc(Cl)nc(SCC(=O)N4CCC(Cc5ccccc5)CC4)n3)CC2C)cc1 (stereo not given) | -2 | 5
CCCc1cc(CN(C)C(=O)CCc2nnc(Cc3cccc(C)c3)o2)[nH]n1 | 18 | 5
CC1CCCCN1Cc1nc2c(c(=O)n(C)c(=O)n2C)n1CCCc1ccccc1 (stereo not given) | 5 | 1
Cc1nc(N2CCCCC2)nc2c1C(=O)CC(C)C2 (stereo not given) | 4 | -1
CCC1(CO)CCCN(c2nccc(CCC(F)(F)F)n2)C1 (stereo not given) | -6 | -10
CCN(C)c1ccnc(N2CCN(Cc3ccncc3F)CC2)n1 | 2 | 1
Cn1c(O)c(N=Nc2ccc([N+](=O)[O-])cc2)c2cc([N+](=O)[O-])ccc21 | -14 | -14
Cc1sc2nc(COC(=O)C3COc4ccc(Cl)cc4C3)[nH]c(=O)c2c1C (stereo not given) | 10 | 4
CC(C)Cc1cc(C(=O)NC2CCCN(C3Cc4ccccc4C3)C2)nc(=O)[nH]1 (stereo not given) | 2 | -1
O=C(Cc1ccccc1)N1CCN(c2cc(-n3ccnc3)ncn2)CC1 | -15 | -20
CCOC(=O)C1C(=N)OC2=C(C(=O)CC(C)(C)C2)C1C1CCCCC1 (stereo not given) | 7 | 6
CCCc1cc(N(CCOC)CC(F)F)n2ncnc2n1 | -9 | -11
O=C(NC1CC1)N1CCN(S(=O)(=O)c2ccc3c(c2)CCC3)CC1 | -9 | -9
COc1cccc(C2CCCCN2Cc2nc(-c3ccc(C)o3)oc2C)c1 (stereo not given) | 3 | -1
COc1ccc(NC(=O)CCC2CCCN(C(=O)C3=NN(C)C(=O)CC3)C2)cc1Cl (stereo not given) | 6 | 3
CC1(C(=O)NCc2cccc3ccccc23)CCN1C(=O)CC(c1ccccc1)c1ccccc1 (stereo not given) | 5 | 4
CC(C)c1ccc(NC(=O)c2nn(CCOc3ccccc3)c3ccccc23)cc1 | 9 | 12
COC(=O)[C@@H](C)NC(=O)[C@H]1CN(C(C)=O)CCN1C(=O)NC1CCCCC1 | -10 | -15
COc1cccc(CN2CCC2(C)C(=O)Nc2cccc(NS(C)(=O)=O)c2)c1F (stereo not given) | 4 | -2
C=CCCC(O)CN(CC)CC(=O)N1CCc2sccc2C1COc1ccc(C)cc1C (stereo not given) | 9 | 10
CCOc1ccccc1C(=O)Nc1ccc(N2CCN(C(=O)c3c(F)ccc(C)c3F)CC2)nc1 | 28 | 17
C/C(=N/N=C1\NC(=O)C(CC(=O)Nc2ccccc2)S1)c1ccc(O)cc1O (stereo not given) | 4 | 3
CC(C)(C)c1ccc(CN(Cc2ccc3c(c2)OCO3)Cc2nc(C(=O)NCc3ccccn3)co2)cc1 | 17 | 32
O=S(=O)(c1ccsc1)N1CCOC(CCCc2ccccc2)C1 (stereo not given) | 4 | -4
COc1ccc(CCC2CCN(C(=O)CNC(=O)c3ccc(C)cc3)CC2)cc1 | 4 | 3
CC(Sc1n[nH]c(=O)n1Cc1ccccc1)C(=O)NC1CCS(=O)(=O)C1 (stereo not given) | 5 | 2
CCCc1cc(=O)n2[nH]c(-c3cccc(Br)c3)cc2n1 | -14 | -23
CCc1nnc(-c2ccc(OC)c(-n3cnnc3)c2)o1 | 7 | 5
CN(Cc1ccccc1)C1(CNC(=O)c2ccoc2)Cc2ccccc2C1 | 8 | 5
Cc1noc(C)c1S(=O)(=O)NCCOC1CCCCC1 | 3 | 2
CC1(C(=O)NS(=O)(=O)c2cccc(C#N)c2)CCN1C(=O)CC1CCCC1 (stereo not given) | 13 | 9
NC1=NC(c2ccncc2)n2c(nc3ccccc32)N1 (stereo not given) | 7 | 1
Cn1c(-c2ccsc2)cc2c(Nc3cccc(S(C)(=O)=O)c3)nccc21 | -5 | -5
CN(Cc1csc(-c2ccccc2)n1)Cc1cc2n(n1)CCNC2 | 15 | 11
Cc1cc(C)cc(N2COc3cc4c(cc3C2)OCO4)c1 | -5 | -3
N#Cc1ccccc1COc1ccc(C=C2C(=O)c3ccccc3C2=O)cc1 | -1 | -1
CCOc1ccc(C2CC(c3ccc(F)cc3)=NN2C(=O)CN2CCOCC2)cc1 (stereo not given) | 3 | 7
CC(C)Cn1ncc2cc(C(=O)N(C)C(C)c3cccs3)cnc21 (stereo not given) | 7 | 5
O=C(Cc1cccs1)Nc1ncc(Cc2ccc(F)c(F)c2)s1 | 11 | 6
CS(=O)(=O)c1ccc(C(=O)NNC(=O)c2ccc(Br)s2)cc1 | 3 | 1
Cc1cc(NC2CCCC2)n2nc(C)c(-c3ccccc3)c2n1 | -1 | -4
CC(C)(C)c1cc2nc(-c3ccccc3F)cc(C(=O)N3CCC(n4c(=O)[nH]c5ccccc54)CC3)n2n1 | -8 | 0
COc1ccc(NC(=O)Cn2cc(OC)c(=O)cc2CSc2nc(C)cc(C)n2)cc1OC | -5 | -14
CC(=O)c1[nH]c(C)c(C(=O)N2CCC(O)(c3ccc(C)cn3)CC2)c1C | 0 | 1
Brc1ccc(-c2nc(-c3cccnc3)no2)cc1 | -7 | -14
Cc1ccc(-c2nnc(NCCCO)c3ccccc23)cc1C | -8 | -10
Cc1ccc(C(c2ccccc2)N2CCN(S(=O)(=O)c3cccc4ccccc34)CC2)cc1 (stereo not given) | 4 | 0
(list continues)
SMILES | NPYLR7 ag | NPYLR7 ag max-min
CCCCn1ccnc1C(O)(c1c[nH]c2ccccc12)C(F)(F)F (stereo not given) | -3 | -3
Cc1[nH]cnc1CN(C)CC1CCN(CC(C)C)C1 (stereo not given) | 5 | 4
CCOCCCn1c(SCc2cccc(C(=O)OC)c2)nc2cc(S(=O)(=O)N3CCOCC3)ccc21 | 15 | 7
O=S(=O)(NC1CCCC1)c1ccc(N2CCCC2)nc1 | -1 | -2
Cc1cc(=O)[nH]c(SCc2nc3c(Br)cc(Br)cc3c(=O)[nH]2)c1C#N | 4 | 8
CC(=O)NC(CC(C)C)C(=O)N1CCN(Cc2cccc(-c3noc(-c4cccc(Cl)c4)n3)c2)CC1 (stereo not given) | 16 | 8
O=c1[nH]c2cc3c(cc2cc1CN1CCC(F)(F)C1)CCC3 | 8 | 7
Cc1ccc2c(c1)C(=O)N(C(C)C(=O)C(C#N)c1ccccn1)C2=O (stereo not given) | -5 | -7
COc1ccccc1C(C1Sc2nc(C)nn2C1=O)N1CCC(C(N)=O)CC1 (stereo not given) | -5 | -10
Cc1ccccc1CSc1nc(Oc2cccc(Cl)c2)cc(C(F)(F)F)n1 | 1 | 15
COc1ccccc1CNC(=O)CN1CCC(CO)CC1 | 4 | 1
CCc1ccc(S(=O)(=O)c2cn(C)c3ccc(C)cc3c2=O)cc1 | -7 | -11
CCc1[nH]n(-c2ccccc2)c(=O)c1C1=C([n+]2ccccc2)C(=O)N(Cc2ccccc2)C1=O | -3 | 5
CCCCn1c(N2CCNCC2)nc2c1c(=O)[nH]c(=O)n2C | 0 | 0
CNC(=O)[C@H]1O[C@@H](n2cnc3c(NCc4ccc(N)cc4)ncnc32)C(O)[C@H]1O (stereo not given in full) | 6 | -10
CCOC(=O)CNc1c(-c2cccc(OS(=O)(=O)c3ccc(OC)cc3)c2)nc2ccc(Cl)cn12 | -3 | 0
COc1cc(/C=C2\C(=O)N(c3ccccc3)N=C2C)cc(Br)c1O | -6 | -15
Cc1ccc(Cl)cc1NC(=O)C1CCS(=O)(=O)C1 (stereo not given) | 0 | 0
Cc1cc(-c2cc(NCCO)nc3[nH]ccc23)nc(N2CCCCC2)n1 | -4 | 6
CC(=O)N1N=C(c2c(-c3ccccc3)c3cc(Cl)ccc3[nH]c2=O)CC1c1ccco1 (stereo not given) | -2 | -8
COC(=O)/C=C/C(=O)OC | -5 | -3
CCN(CC)C(=O)c1cn(C2CCN(c3ccc(Cl)cn3)CC2)nn1 | 3 | -3
Cc1nc(NC(=O)NC2CCN(C3CCOC3)CC2)sc1C (stereo not given) | 0 | -1
Cc1ccc(-c2cc(CC#N)no2)cc1 | 0 | -3
CCOC(=O)c1ccccc1NC(=O)Cn1cc(OC)c(=O)cc1CSc1ncccn1 | -4 | -8
O=C(CN1CCCCCCC1=O)NCc1ccc(N2CCSCC2)cc1 | 0 | 14
C[C@@H](C(=O)OCC(N)=O)N1C(=O)C2CC=CCC2C1=O (stereo not given in full) | 4 | 8
CC(C)c1ccc(CN(CCN2CCOCC2)Cc2nc(C(=O)N3CCCCC3)co2)cc1 | 6 | 19
Cc1ccc2nc(C(=O)N3CCC(O)(CO)CC3)c(F)n2c1 | 3 | -2
O=C(CN1C(=O)CCC1=O)Nc1nnc(-c2ccncc2)o1 | -1 | -2
CC(c1cc(F)ccc1F)N(C)CC(=O)N1CCc2ccccc21 (stereo not given) | 0 | 13
O=C(c1ccc2oc(Cc3ccccc3)nc2c1)N(CCO)Cc1ccccc1 | 4 | 1
Cc1ccc(C)c(COC(=O)C2COc3ccccc3O2)c1 (stereo not given) | 9 | 5
CCOCCn1c(=O)c2c(nc3n2CC(C)CN3c2ccccc2C)n(C)c1=O (stereo not given) | 11 | 2
O=C1NCC2(CCN(Cc3c(C(=O)N4CCCC4)nc4ccccn34)CC2)O1 | 7 | -2
CCc1n[nH]c(=O)c(CNC(=O)NCc2ccccc2)c1CC | 3 | 366
CCC1CN(Cc2csc(C(=O)OC)c2)CCN1C(C)C (stereo not given) | -2 | -4
CCOC(=O)C1=C(C)NC(=S)NC1c1ccc(Cl)cc1 (stereo not given) | 0 | -5
O=C(C1CCN(S(=O)(=O)c2ccc(F)cc2)CC1)N1CCCCCC1 | -5 | 0
O=C1CCc2cc(C(=O)c3cc4cc5c(cc4o3)OCO5)ccc2N1 | 18 | 12
O=C(CC1CSc2nc3c(c(=O)n21)CCC3)N1CCN(c2ccccc2)CC1 (stereo not given) | -1 | -4
O=C(OCCc1ccc(F)cc1)N1CCC(n2c(=O)[nH]c3ccccc32)CC1 | -7 | -13
O=C(Cc1csc(N2CCCC2=O)n1)Nc1cccc(Cl)c1 | 14 | 3
O=C(c1ccc([N+](=O)[O-])cc1)N1CCCN(c2cc(Oc3ccc(F)c(Cl)c3)ncn2)CC1 | 7 | 4
O=C1CC(C(=O)Nc2ccc(F)c(Cl)c2)N=C(N2CCOCC2)N1 (stereo not given) | 2 | 0
O=C(NCc1ccccn1)c1ccc(CSc2nc(N3CCCC3)cc(C(F)(F)F)n2)cc1 | 4 | 16
O=C(Nc1cccc(-c2nc3cccnc3s2)c1)c1cc(Cl)ccc1[N+](=O)[O-] | -1 | -3
